# Assay outcomes: PubChem, several laboratories
# Mtb betalactam = beta-lactam sensitization of Mtb H37Rv; M. tuberculosis H37Rv growth with meropenem, percent inhibition; hits of this screen are not shown here; inhibition, % at 25 µM; 330,000 compounds, 0.27% hits; AID 434955;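 active = about 74% or more and at least 40 points above the plate without the antibiotic, then above 30% in a dose series; inconclusive = first-round hits that could not be retested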;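 also: growth measured after seven days incubation then overnight dye step; 0% = bacteria only wells and 100% = bacteria with antibiotic; twin plates without the antibiotic show which effects depend on it; some results filed as inactive read as strong as hits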
# Arbovirus anti = arbovirus infection inhibition | arbovirus infection cell-based antiviral screen | inhibition, % at 10 µM | 200,000 compounds, 0.37% hits;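 active = inhibition from about 30%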;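 also: bluetongue infection of BSR cells; cell survival read as ATP light after 72 h; 0% = infected wells without compound and 100% = uninfected wells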
# RecA splice inh = Mtb RecA intein splicing inhibition | AID 2221 | inhibition, %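 (about 9 µM by stock and volumes)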 | P9WHJ3 | 290,000 compounds, 0.75% hits | cell-free RecA intein splicing, fluorescence; in the data active = inhibition above about 30%; inconclusive = no clear call, values can overlap the other calls;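 also: 0% = vehicle wells and 100% = reference inhibitor control wells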
# Target sequence (P9WHJ3 whole entry, looked up, canonical isoform): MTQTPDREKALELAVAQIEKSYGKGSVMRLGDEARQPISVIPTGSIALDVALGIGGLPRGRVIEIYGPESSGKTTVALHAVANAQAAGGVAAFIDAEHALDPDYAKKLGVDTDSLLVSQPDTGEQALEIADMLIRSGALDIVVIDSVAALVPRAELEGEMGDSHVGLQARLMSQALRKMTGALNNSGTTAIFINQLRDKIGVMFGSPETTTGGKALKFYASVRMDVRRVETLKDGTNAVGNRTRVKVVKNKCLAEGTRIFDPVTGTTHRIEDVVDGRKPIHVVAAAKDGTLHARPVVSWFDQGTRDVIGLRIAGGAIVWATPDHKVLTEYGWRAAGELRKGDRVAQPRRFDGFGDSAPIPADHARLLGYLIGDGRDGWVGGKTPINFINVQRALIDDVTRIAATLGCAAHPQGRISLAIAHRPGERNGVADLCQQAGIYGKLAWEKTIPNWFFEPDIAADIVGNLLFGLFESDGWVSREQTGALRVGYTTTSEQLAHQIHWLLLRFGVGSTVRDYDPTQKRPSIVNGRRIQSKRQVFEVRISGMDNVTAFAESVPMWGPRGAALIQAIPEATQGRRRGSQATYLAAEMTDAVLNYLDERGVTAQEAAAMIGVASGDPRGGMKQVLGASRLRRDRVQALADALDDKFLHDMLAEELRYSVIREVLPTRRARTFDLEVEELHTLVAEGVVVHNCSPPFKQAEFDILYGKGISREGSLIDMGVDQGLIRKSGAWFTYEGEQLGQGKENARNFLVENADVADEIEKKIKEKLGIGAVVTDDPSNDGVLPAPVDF
# Mtb H37Rv = M. tuberculosis H37Rv growth inhibitors, H37Rv strain (AID 1626); M. tuberculosis H37Rv growth inhibition; higher % means a stronger effect; one-dose inhibition, % at 10 µM; IC50 in µM for titrated hits; 220,000 compounds, 0.95% hits;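 active = confirmed in a dose series; inconclusive = inhibition above 80% but not taken into the dose series; inactive = below 80% or under 30% at every dose of the series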;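 also: bacteria incubated seven days before Alamar blue readout; 0% = bacteria only wells and 100% = bacteria with antibiotic wells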
# YopH inh = blocks Yersinia enterocolitica YopH tyrosine phosphatase; fluorescence Ex485/Em525; 140,000 compounds, 0.16% hits; inhibition, %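 (about 10 µM by stock and volumes)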; AID 898;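 active = inhibition of 50% or more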;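 also: controls were vehicle for no effect and minimum signal wells for full effect; inactives centre near -20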
# Arbovirus anti repeat = second read-out of Arbovirus anti, no call of its own (marks repeat the call); inhibition, %; measured here: 10K subset replicate screen; many hits read low in the repeat;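 first of two repeat runs on a subset; 0% = infected and 100% = uninfected wells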
# * hit, by the source's call; ? = inconclusive; . = no result given; & = joins results of further samples.
SMILES,Mtb betalactam,Arbovirus anti,RecA splice inh,Mtb H37Rv,YopH inh,others
CCCNNC(=O)C(O)(c1cccc(C)c1)c1cccc(C)c1,-6,6,-1.5,-3%,-20,
CC(=O)Oc1ccc(NC(=O)Cc2ccccc2)cc1,-4,-14,0.7,5%,-15,
CCOc1cc(-c2nnc(NC(=O)C3=COCCO3)o2)cc(OCC)c1OCC,72,.,-0.9,.,.,
O=C1CC(N(C(=O)c2ccco2)c2cccc(Cl)c2)C(=O)N1c1cccc(Cl)c1 (centres undefined),-10,0,-2.0,-7%,-38,
Cc1nn(Cc2ccccc2)c(C)c1C(=O)NCc1ccccc1F,-1,-3,1.3,6%,.,
CC1(C)CC(NC(=S)NC2CC2)CC(C)(C)N1,-1,7,5.0,-4%,.,
CCc1cccc(NC(=O)C2CCCN(S(=O)(=O)c3cnc[nH]3)C2)c1 (centres undefined),-8,.,15,.,.,
Cc1ccc2[nH]c3c(c2c1)CCNC3=O,-2,0,1.7,10%,.,
COc1ccccc1NC(=O)CCC(=O)Nc1nnc(C2CCCCC2)s1,5,.,0.3,.,.,
Cc1ccc(NC(=O)CSCC(=O)O)cc1,-3,1,-0.7,-7%,.,
CC(C)c1ccc([N+](=O)[O-])cc1S(=O)(=O)N1CCN(C)CC1,0,.,-5.1,.,.,
CCc1ccc(OCC(=O)N/N=C/c2cc([N+](=O)[O-])ccc2N2CCCCCC2)cc1,2,-5,0.4,5%,-13,
COc1ccccc1CNC(=O)N1CCN(S(=O)(=O)c2ccccc2)CC1,1,.,0.1,.,.,
Cc1ccccc1-c1nc(CS(=O)(=O)CC(=O)NCc2ccc3c(c2)OCO3)c(C)o1,-2,-14,1.9,2%,-4,
O=C1CCC([N+](=O)[O-])C(c2cccc([N+](=O)[O-])c2)N1 (centres undefined),0,-2,-3.3,-7%,.,
Cc1ncc(CO)c(/C=N/NC(=S)Nc2cccc(Cl)c2)c1O,2,-25,-7.9,0%,.,
CN(Cc1ccco1)C(=O)Cn1cc(S(=O)(=O)N2CCCC2)c(S(=O)(=O)N2CCCC2)c1,2,.,-1.0,.,.,
COc1ccc(C(C[N+](=O)[O-])c2c(-c3ccccc3)cc3ccccn23)cc1 (centres undefined),0,2,3.5,.,-23,
CCN1C(=O)CC(n2c(C)nc3ccccc32)C1=O (centres undefined),-5,0,0.3,-15%,1,
CCc1cc2c(=O)n(CC(C)C)cnc2s1,3,1,1.7,-1%,-32,
COc1ccc(CC(=O)N/N=C(\C)CC(=O)Nc2ccc3c(c2)OCCO3)cc1OC,-5,.,1.8,.,.,
COc1cc(NC(=O)CSc2nc(C3CC3)nc3ccccc23)cc(OC)c1,-6,.,7.2,.,.,
O=C(CSc1nnc2scc(-c3ccccc3)n12)Nc1nsc(-c2ccccc2)n1,97,-3,2.4,6%,-8,
Cc1cc2sc3ccccc3c(=O)c2c(C)c1O,-2,1,-23,-1%,.,

# Some of these compounds in order of length of the SMILES, falling.
SMILES,Mtb betalactam,Arbovirus anti,RecA splice inh,Mtb H37Rv,YopH inh,others
COc1ccc(CC(=O)N/N=C(\C)CC(=O)Nc2ccc3c(c2)OCCO3)cc1OC,-5,.,1.8,.,.,
COc1cc(NC(=O)CSc2nc(C3CC3)nc3ccccc23)cc(OC)c1,-6,.,7.2,.,.,
Cc1ncc(CO)c(/C=N/NC(=S)Nc2cccc(Cl)c2)c1O,2,-25,-7.9,0%,.,
CCN1C(=O)CC(n2c(C)nc3ccccc32)C1=O (centres undefined),-5,0,0.3,-15%,1,
Cc1cc2sc3ccccc3c(=O)c2c(C)c1O,-2,1,-23,-1%,.,
CCc1cc2c(=O)n(CC(C)C)cnc2s1,3,1,1.7,-1%,-32,

# Carrying on:
SMILES,Mtb betalactam,Arbovirus anti,RecA splice inh,Mtb H37Rv,YopH inh,others
COc1ccc(CNC(=O)C2CCN(S(=O)(=O)N3CCCC3)CC2)c(OC)c1,-2,.,1.7,.,.,
CCN(CC(O)CON=C1c2ccccc2-c2ccccc21)S(=O)(=O)c1ccc(Cl)cc1 (centres undefined),8,-14,15,20%,-21,
CCNC(=O)NCc1c(C)c(C)n(Cc2ccccc2)c1-n1cccc1,-3,1,-1.2,2%,.,
O=C(Nc1nsc(-c2ccccc2)n1)c1cccs1,-9,8,-5.3,9%,-19,
C[C@@H]1CC=C[C@H]2[C@H]1C(=O)N(Cc1ccccc1)[C@H]2c1ccc(C(F)(F)F)cc1,-9,.,37*,-15%,.,
Cc1nnc(N/N=C/c2ccc(Br)cc2)n1N,96,.,-9.7,.,.,
Nc1n[nH]c(C(F)(F)F)c1-c1ccccc1,-11,4,-0.6,4%,.,
CCOc1ccc(N(CC(=O)NCc2ccc(OC)cc2)S(C)(=O)=O)cc1,-7,.,-0.3,.,.,
CCOC(=O)c1cnc2c(C)cc(Cl)cc2c1NCCCN1CCOCC1,1,.,-1.9,.,.,
CCOc1ccc(S(=O)(=O)N2CCN(C(=O)c3sccc3C)CC2)cc1,-7,9,2.9,-2%,-14,
COc1ccccc1N1CCN(C(c2ccc(F)cc2)c2nnnn2C(C)C)CC1 (centres undefined),.,9,-8.4,-5%,-13,
COc1ccc(NC(=O)/C(C#N)=C/c2ccc(-c3ccccc3C(=O)O)o2)cc1,-1,.,3.2,.,.,
COc1ccc(-c2noc(-c3cccnc3)n2)cc1OC,0,6,0.9,-4%,.,
COc1cccc(CNC(=O)C2CCN(S(=O)(=O)c3ccc4c(c3)CC(C)N4C(C)=O)CC2)c1 (centres undefined),-3,.,1.6,.,.,
CCCCN1C(=O)C(CC(=O)NCC)SC1=Nc1ccccc1 (centres undefined),-5,-5,6.5,2%,3,
CC(=O)Nc1ccc(S(=O)(=O)N(Cc2ccco2)Cc2cc3ccccc3[nH]c2=O)cc1,-6,.,1.9,.,.,
COC(=O)c1ccc(C(=O)OC)c(NC(=S)N2CCN(c3ccccc3)CC2)c1,6,2,0.3,1%,-36,
CCOc1ccc(C(=O)Nc2c3c(nn2-c2ccccc2)CS(=O)(=O)C3)cc1,1,.,-4.9,.,.,
CC1=NN(c2ccc(C)cc2C)C(=O)C1C(c1ccccc1)C1C(=O)N(c2ccc(C)cc2C)N=C1C (centres undefined),-8,-4,90*,-12%,-37,
O=C(CN1CCN(c2ccccn2)CC1)NC1CCCC1,-4,0,1.4,-7%,-23,
CN(C)C(=O)Cn1c(SCC(=O)NCc2ccc3c(c2)OCO3)nc2ccccc21,-6,1,-1.9,4%,-26,
C=C(C)n1c(=O)n(Cc2ccccc2C)c2ccccc21,6,.,6.0,.,.,
NC(=O)Cc1nc(-c2ccc(F)cc2)cs1,10,.,0.3,-4%,.,
N#Cc1nc(-c2ccco2)oc1N1CCN(Cc2ccccc2)CC1,-4,11,3.4,0%,-50,
O=C(NCCS(=O)(=O)NC1CCCCC1)c1ccc2c(c1)OCO2,-2,.,0.0,.,.,
CC1(C(=O)O)COC(c2ccc(Cl)cc2)OC1 (centres undefined),6,.,2.8,2%,.,
Cc1ccc(C)c(S(=O)(=O)N2CCCCC2CCNC(=O)C(=O)NCc2ccncc2)c1 (centres undefined),-2,.,-0.2,.,.,
Cc1ccc(NC(=O)c2ccccc2N(C)S(=O)(=O)c2ccccc2)c(C)c1,-6,-8,6.3,-1%,-37,
COc1ccc(C2=NNC(=Nc3cc(S(=O)(=O)N(C)C)ccc3C)SC2)c(OC)c1,-7,.,4.7,-8%,.,
O=C1CCCCC(=O)N(c2ccccc2)c2ccccc21,2,15,-0.6,-7%,-23,Arbovirus anti repeat=6
Cc1cccc(N2CC(C(=O)Nc3nnc(SCC(=O)NCC4CCCO4)s3)CC2=O)c1 (centres undefined),-4,.,0.5,.,.,
Nc1c(C2=NCCO2)nnn1Cc1ccccc1,-12,7,1.2,1%,4,
O=C(NCc1ccco1)C1CC2CCC1C2 (centres undefined),1,13,-0.4,9%,8,
CC(NC(=O)c1cccc(F)c1)C1CC2CCC1C2 (centres undefined),-2,.,1.4,.,.,
Nc1nonc1OCCOCCOCCOc1nonc1N,0,6,-2.5,-2%,.,
O=C(Oc1ccccc1/C=C\C(=O)c1cc2ccccc2o1)c1cccc(F)c1,99,-36,4.8,?,-4,
N#Cc1cnn2c1nc(N1CCOCC1)c1ccccc12,0,1,-2.4,4%,-13,
COc1ccc(Nc2ccccc2NC(=O)c2ccccc2Br)cc1,10,.,6.0,.,.,
O=C(C[n+]1cc(-c2ccccc2)n2c1CCCCC2)c1ccc(Cl)cc1,-1,-1,1.4,19%,-1,
O=C(O)c1ccc(NCc2nc3ccccc3n2Cc2ccccc2)cc1,-9,.,-2.3,0%,.,
CC(C)CNC(=O)c1ccccc1-c1ccccc1C(=O)O,7,-2,1.4,-3%,-40,
O=C(NCc1cccs1)C1CCN(S(=O)(=O)c2ccc(Cl)cc2)CC1,-1,-4,-2.8,-5%,.,
O=C1CC(c2ccccc2Cl)CC(O)=C1C=Nc1ccccc1 (centres undefined),-2,15,-1.9,3%,-34,
FC(F)(F)c1cccc(N/N=C/c2ccccc2)c1,-2,-11,.,?,-24,
COc1ccc(CNC(=O)c2c[nH]c3c(OC)cc(OC)cc3c2=O)cc1,-14,.,0.2,.,.,
COc1cc(NC(=O)COC(=O)/C=C/c2ccc(Cl)cc2Cl)cc(OC)c1,0,-6,0.0,-3%,-26,
CN(C)C(CNc1ncnc2sccc12)c1cccs1 (centres undefined),-5,-3,3.8,4%,.,
COc1cc2c(cc1OC)CN(C(=O)/C=C/c1cccc([N+](=O)[O-])c1)CC2,3,.,0.1,.,.,
CCOc1cc(/C=N/NC(N)=S)cc(Br)c1OCc1ccccc1C,75,-34,6.3,55%,-17,
CCn1cc([N+](=O)[O-])c(C(=O)N2N=C(c3ccc(Cl)c(Cl)c3)CC2c2ccccc2O)n1 (centres undefined),7,-36,10,?,.,
COc1ccccc1N1CCN(CC(O)COc2cccc3ccccc23)CC1 (centres undefined),31&6,4&-14,4.8&9.1,3%&39%&28%,-34,
C=CCNCCOc1ccc(C)cc1[N+](=O)[O-],0,-7,-0.4,-1%,.,
CCc1nc(SCC(=O)c2cc(C)ccc2C)n[nH]1,0,2,-0.8,-6%,-7,
COC(=O)c1cnc(SCc2ccc(C)cc2)n1C,0,1,1.0,16%,.,
Cc1cccc(C(=O)n2c(=S)nc3cc(C)ccn32)c1,-5,.,-1.1,-5%,.,
CCCC(=O)n1nc(-c2ccc(C)cc2)nc1NCc1ccco1,7,1,-1.0,0%,.,
CCC(=O)N1CCc2cc(S(=O)(=O)N3CCc4ccccc4C3)ccc21,-9,5,0.7,-9%,-14,
Cc1[nH]c(=O)[nH]c(=O)c1CSc1nnc([C@H](CC(C)C)NC(=O)OC(C)(C)C)o1,-11,15,-2.6,-10%,-45,
N#Cc1nc(COc2ccccc2F)oc1NCCCn1ccnc1,-4,-1,4.4,-1%,-58,
CN(c1ccc(F)cc1)S(=O)(=O)c1ccc2[nH]cc(C(=O)O)c(=O)c2c1,-4,2,.,-8%,-13,

# Later entries
SMILES,Mtb betalactam,Arbovirus anti,RecA splice inh,Mtb H37Rv,YopH inh,others
CCc1ccccc1Oc1coc2cc(O)ccc2c1=O,6,.,-1.3,.,.,
Cc1ccccc1C(=O)N1CCC(C(=O)Oc2ccc(C#N)cc2)CC1,-6,.,8.5,.,.,
Cc1ccc(NC(=S)Nc2c(C)n(C)n(-c3ccccc3)c2=O)cc1,1,9,-0.7,20%,0,
COCc1ccc([C@@H]2C[C@H]3CN(Cc4cccnc4)C(=O)[C@]34CCCN24)o1,-8,0,-2.9,5%,.,
COc1ccc(C(=O)N[C@H](C(=O)Nc2ccc(S(=O)(=O)N3CCOCC3)cc2)C(C)C)cc1,-12,.,0.0,6%,.,
COc1ccc(CCC(=O)N(c2nnc(-c3cccnc3)s2)C(C)C)cc1,-6,0,2.1,-4%,.,
OC(CNCc1ccccc1)COc1ccccc1 (centres undefined),-1,.,-0.1,.,.,
CCOC(=O)C1(CCCc2ccccc2)CCN(C(=O)CCn2cncn2)CC1,-3,7,0.9,-1%,.,
CCC(CC)C(=O)N1CCN(Cc2nc3ccccc3c(=O)[nH]2)CC1,-4,3,6.2,-9%,.,
N#Cc1nccnc1N1CCN(C(=O)Nc2ccccc2)CC1,-10,.,-1.0,-3%,.,
CCOCCCNC(=O)C1CCC(CNS(=O)(=O)c2ccc(Cl)cc2)CC1 (centres undefined),-3,0,-3.6,3%,-4,
COc1cc(NC(=O)C2CC2)c(OC)cc1NC(=O)CCC(=O)NC1CCN(Cc2ccccc2)CC1,-4,1,1.4,-10%,.,
O=C1CCC/C(=N\NC(=O)c2ccc(COc3ccccc3-c3ccccc3)cc2)C1,5,8,17,5%,.,

# A portion of the library; count on the stated rates, not on these rows.
